UUG fidelity: modulators of yeast start codon fidelity, primary screen, whole organism, S. cerevisiae, single point, plate reader | S. cerevisiae UUG-firefly luciferase reporter, luminescence/redox ratio | 350,000 compounds, 0.13% hits | activity score, % at 18.7 µM | AID 602363, 2012;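 active = replicate mean at a twofold rise or more, about +100% in these data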;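 note: firefly luciferase made from a UUG start codon reports start codon fidelity; reporter light over untreated wells divided by growth signal over untreated wells; some hits fall short of that in this replicate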
Env fusion inh: inhibitors of HIV-1 Env-driven cell-cell fusion, primary screen, HeLa-JRFL effector, CEM21 target cells, luciferase; inhibition, % at 12.3 µM; 360,000 compounds, 1.1% hits; AID 651610, 2012;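 active = mean replicate inhibition score of at least 50 and every replicate individually at or above 50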;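 note: 0% = plate neutral controls and 100% = maraviroc near 300 nM; one replicate is shown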
* = called active by the depositor; [ ] = dose if it differs, or a comment. Some of the compounds tested; rates above refer to the full screens.

A first look (3 entries):
Env fusion inh | UUG fidelity | Structure
-23[16.7 µM] | 10 | Cc1noc(C)c1NC(=O)N(C)C[C@@H]1Oc2ccc(NS(=O)(=O)c3ccc(Cl)cc3)cc2C(=O)N([C@@H](C)CO)C[C@H]1C
-1[16.7 µM] | -7 | Cn1cnc(S(=O)(=O)N[C@H]2CC[C@@H](CC(=O)N3CCN(c4ccccc4)CC3)O[C@H]2CO)c1
17[16.7 µM] | -16 | C[C@H]1CN([C@@H](C)CO)S(=O)(=O)c2ccc(C#Cc3ccccc3)cc2O[C@H]1CN(C)C(=O)C1CC1

The list itself, from the first entry:
Env fusion inh | UUG fidelity | Structure
-23[16.7 µM] | 10 | Cc1noc(C)c1NC(=O)N(C)C[C@@H]1Oc2ccc(NS(=O)(=O)c3ccc(Cl)cc3)cc2C(=O)N([C@@H](C)CO)C[C@H]1C
-1[16.7 µM] | -7 | Cn1cnc(S(=O)(=O)N[C@H]2CC[C@@H](CC(=O)N3CCN(c4ccccc4)CC3)O[C@H]2CO)c1
17[16.7 µM] | -16 | C[C@H]1CN([C@@H](C)CO)S(=O)(=O)c2ccc(C#Cc3ccccc3)cc2O[C@H]1CN(C)C(=O)C1CC1
18[16.7 µM] | 14 | Cc1noc(C)c1S(=O)(=O)N(C)C[C@@H]1OCCCC[C@@H](C)Oc2ccc(NS(=O)(=O)c3ccc(F)cc3)cc2C(=O)N([C@@H](C)CO)C[C@H]1C
15[16.7 µM] | -2 | CN1C(=O)c2cc(NC(=O)C3CCCCC3)ccc2OC[C@@H]2O[C@H](CC(=O)NCCc3ccncc3)CC[C@H]21
-11[16.7 µM] | 19 | C[C@@H]1CN([C@H](C)CO)C(=O)c2cccc(NC(=O)c3ccc(-c4nccs4)cc3)c2O[C@@H]1CN(C)CC1CC1
2[16.7 µM] | -6 | Cc1ccc(-c2cnc3c(c2)C(=O)N([C@@H](C)CO)C[C@@H](C)[C@@H](CN(C)C(=O)Cc2ccncc2)O3)cc1
-33[16.7 µM] | -7 | C[C@@H]1CN([C@@H](C)CO)C(=O)c2cccc(NC(=O)C3CC3)c2O[C@@H]1CN(C)Cc1ccc(Cl)c(Cl)c1
2[16.7 µM] | -12 | CN1C(=O)c2cc(NC(=O)c3ccc(F)cc3)ccc2OC[C@H]2O[C@H](CC(=O)NCC3CC3)CC[C@@H]21
6[16.7 µM] | 4 | C[C@H]1CN([C@@H](C)CO)C(=O)c2cccc(NC(=O)Nc3ccc(F)cc3)c2O[C@@H]1CN(C)CC1CCCCC1
-11[16.7 µM] | 3 | COc1ccccc1NC(=O)C[C@H]1CC[C@H]2[C@@H](COc3ccc(NC(=O)C(C)C)cc3C(=O)N2C)O1
14[16.7 µM] | -13 | CNC[C@H]1Oc2c(NS(C)(=O)=O)cccc2C(=O)N([C@@H](C)CO)C[C@@H]1C
-12[16.7 µM] | -9 | CNC(=O)C[C@H]1CC[C@H]2[C@H](COc3ccc(NC(=O)NC4CCCC4)cc3C(=O)N2C)O1
5[16.7 µM] | 13 | COc1ccc(NC(=O)N(C)C[C@@H]2Oc3ccc(NC(=O)CCN4CCOCC4)cc3C(=O)N([C@H](C)CO)C[C@@H]2C)cc1
-2[16.7 µM] | -17 | CCCNC(=O)N[C@H]1CC[C@@H](CC(=O)NCCc2ccccc2)O[C@@H]1CO
2[16.7 µM] | -10 | C[C@@H](NC(=O)C[C@H]1CC[C@H](NC(=O)C2CC2)[C@@H](CO)O1)c1ccccc1
-19[16.7 µM] | -10 | COc1ccc(S(=O)(=O)N(C)C[C@@H]2OCCCC[C@H](C)Oc3ccc(NC(=O)Cc4ccccc4)cc3C(=O)N([C@H](C)CO)C[C@@H]2C)cc1
7[16.7 µM] | -5 | O=C(C[C@H]1C=C[C@H](NS(=O)(=O)c2cccc(F)c2)[C@@H](CO)O1)N1CCCCC1
9[16.7 µM] | 9 | Cc1ccc(S(=O)(=O)Nc2ccc3c(c2)C(=O)N([C@H](C)CO)C[C@H](C)[C@H](CN(C)C(=O)CCCN(C)C)OCCCC[C@H](C)O3)cc1
-10[16.7 µM] | 19 | CNC[C@H]1OCCCC[C@H](C)Oc2ccc(N)cc2C(=O)N([C@@H](C)CO)C[C@@H]1C
-15[16.7 µM] | 12 | COc1ccc(S(=O)(=O)Nc2ccc3c(c2)C(=O)N([C@H](C)CO)C[C@H](C)[C@H](CN(C)CC2CCCCC2)OCCCC[C@@H](C)O3)cc1
-15[16.7 µM] | 10 | CC(=O)N(C)C[C@@H]1Oc2cc(-c3ccccc3C)ccc2S(=O)(=O)N([C@@H](C)CO)C[C@H]1C
12[16.7 µM] | 0 | CNC[C@@H]1Oc2cc(-c3ccncc3)ccc2S(=O)(=O)N([C@H](C)CO)C[C@H]1C
5[16.7 µM] | -4 | Cc1noc(C)c1S(=O)(=O)Nc1ccc2c(c1)C(=O)N([C@H](C)CO)C[C@@H](C)[C@H](CN(C)Cc1ccc(C(F)(F)F)cc1)O2
7[16.7 µM] | 0 | COCC#Cc1ccc2c(c1)O[C@@H](CN(C)C(=O)C1CCC1)[C@H](C)CN([C@H](C)CO)S2(=O)=O
14[16.7 µM] | 3 | O=C(NCC[C@H]1CC[C@H](NS(=O)(=O)c2ccccc2)[C@@H](CO)O1)c1ccccc1F
5[16.7 µM] | 2 | CO[C@H]1CN(C)C(=O)c2ccc(NC(=O)Cc3ccccc3)cc2OC[C@@H](C)NC[C@H]1C
-13[16.7 µM] | 6 | COC(=O)C[C@@H]1C[C@H]2c3cc(NC(=O)Nc4ccc(OC)cc4)ccc3O[C@H]2[C@H](CO)O1
-117[16.7 µM] | -5 | C[C@@H]1CCCCO[C@H](CN(C)C(=O)Nc2ccccc2)[C@H](C)CN([C@@H](C)CO)C(=O)c2cc(NC(=O)Cc3ccccc3)ccc2O1
19[16.7 µM] | 4 | CC(C)CC#Cc1ccc2c(c1)O[C@@H](CN(C)C(=O)c1ccccc1)[C@H](C)CN([C@@H](C)CO)S2(=O)=O
-13[16.7 µM] | -14 | CCC(=O)N[C@@H]1C=C[C@H](CC(=O)NCCN2CCCCC2)O[C@@H]1CO
0[16.7 µM] | 6 | C[C@@H]1CN([C@@H](C)CO)C(=O)c2cc(NC(=O)NC3CCCCC3)ccc2O[C@H]1CN(C)Cc1ccc2c(c1)OCO2
7[16.7 µM] | -9 | C[C@@H](NC(=O)C[C@@H]1CC[C@@H](NC(=O)C2CC2)[C@@H](CO)O1)c1ccccc1
-6[16.7 µM] | -12 | C[C@@H]1CN([C@H](C)CO)C(=O)c2cc(C#CCN(C)C)cnc2O[C@H]1CN(C)C(=O)Cc1ccncc1
-9[16.7 µM] | 0 | C[C@H]1CN([C@@H](C)CO)C(=O)c2cc(C#CC3CC3)cnc2O[C@H]1CN(C)C(=O)Nc1ccccc1
7[16.7 µM] | 10 | C[C@H](CO)N1C[C@H](C)[C@@H](CN(C)Cc2ccccc2)OCCCC[C@H](C)Oc2ccc(NS(=O)(=O)c3ccc(F)cc3)cc2C1=O
-41[16.7 µM] | -9 | COC(=O)C[C@H]1CC[C@H]2[C@@H](COC[C@H](O)CN2C(=O)Nc2cccc(F)c2)O1
25[16.7 µM] | 36 | O=C(C[C@H]1C[C@@H]2c3cc(NS(=O)(=O)c4ccccc4)ccc3O[C@@H]2[C@H](CO)O1)NC1CCCCC1
-2[16.7 µM] | 13 | Cc1noc(C)c1S(=O)(=O)N(C)C[C@H]1Oc2ccc(NS(=O)(=O)c3cccs3)cc2CC(=O)N([C@H](C)CO)C[C@H]1C
5[16.7 µM] | 10 | CCCNC(=O)N1[C@H](C#N)[C@@H](c2ccccc2)[C@H]1CO
-5[16.7 µM] | -5 | C[C@@H]1CCCCO[C@@H](CN(C)C(=O)c2ccncc2)[C@H](C)CN([C@@H](C)CO)C(=O)c2cc(NC(=O)CCC(F)(F)F)ccc2O1
4[16.7 µM] | 11 | O=C(N[C@@H]1CC[C@H](CCNS(=O)(=O)c2cccc(Cl)c2)O[C@@H]1CO)c1ccc(F)cc1
-19[16.7 µM] | 23 | COc1ccc(CN(C)C[C@@H]2OCCCC[C@H](C)Oc3ccc(NS(=O)(=O)c4ccc(C)cc4)cc3C(=O)N([C@H](C)CO)C[C@@H]2C)cc1
11[16.7 µM] | 18 | CCCC(=O)Nc1ccc2c(c1)C(=O)N(C)[C@H]1CC[C@H](CC(=O)Nc3ccccc3OC)O[C@@H]1CO2
13[16.7 µM] | 28 | COc1cc2c(cc1O)C=[N+](Cc1cccc(OC(F)(F)F)c1)CC2
-17[16.7 µM] | -1 | Cc1noc(C)c1NC(=O)Nc1ccc2c(c1)CC(=O)N([C@@H](C)CO)C[C@@H](C)[C@@H](CN(C)C(=O)Nc1ccc3c(c1)OCO3)O2
30[16.7 µM] | 1 | C[C@H](CO)N1C[C@H](C)[C@H](CN(C)Cc2ccncc2)Oc2ccc(NC(=O)CCC(F)(F)F)cc2C1=O
-1[16.7 µM] | -6 | Cc1ccc(S(=O)(=O)Nc2ccc3c(c2)C(=O)N([C@@H](C)CO)C[C@H](C)[C@@H](CN(C)C(=O)Nc2cccc4ccccc24)O3)cc1
-1[16.7 µM] | 11 | CC(C)NC(=O)Nc1ccc2c(c1)C(=O)N([C@H](C)CO)C[C@H](C)[C@H](CN(C)Cc1ccc(Cl)c(Cl)c1)OCCCC[C@@H](C)O2
-4[16.7 µM] | 7 | COc1ccc(S(=O)(=O)Nc2cccc3c2O[C@@H](CN(C)S(C)(=O)=O)[C@@H](C)CN([C@H](C)CO)C3=O)cc1
-178[16.7 µM] | -7 | NC(=O)[C@H]1[C@@H]2C(=O)O[C@@H](c3ccccc3)[C@@H](c3ccccc3)N2[C@@H](c2ccccc2OCCO)[C@]12C(=O)Nc1ccccc12
-4[16.7 µM] | -3 | CC(C)NC(=O)Nc1ccc2c(c1)C(=O)N([C@H](C)CO)C[C@@H](C)[C@H](CN(C)Cc1ccc3c(c1)OCO3)OCCCC[C@H](C)O2
-25[16.7 µM] | 2 | Cc1ccc(S(=O)(=O)Nc2ccc3c(c2)C(=O)N([C@@H](C)CO)C[C@@H](C)[C@H](CN(C)C(=O)CCC(F)(F)F)OCCCC[C@@H](C)O3)cc1
-14[16.7 µM] | 5 | CNC[C@@H]1Oc2ccc(NC(=O)C3CCCCC3)cc2C(=O)N([C@@H](C)CO)C[C@H]1C
-1[16.7 µM] | 1 | COc1ccc(NC(=O)Nc2cccc3c2O[C@H](CN(C)Cc2ccc(Oc4ccccc4)cc2)[C@H](C)CN([C@@H](C)CO)C3=O)cc1
8[16.7 µM] | 2 | Cc1noc(C)c1S(=O)(=O)N(C)C[C@H]1Oc2ccc(NC(=O)Cn3cnnn3)cc2CC(=O)N([C@@H](C)CO)C[C@@H]1C
19[16.7 µM] | 4 | COc1ccc(C#Cc2ccc3c(c2)O[C@@H](CN(C)C(=O)c2ccccn2)[C@H](C)CN([C@@H](C)CO)S3(=O)=O)cc1
7[16.7 µM] | -8 | Cc1ccc(S(=O)(=O)N(C)C[C@@H]2OCCCC[C@H](C)Oc3ccc(NC(=O)C4CCCCC4)cc3C(=O)N([C@@H](C)CO)C[C@H]2C)cc1
11[16.7 µM] | -7 | CNC[C@H]1Oc2ccc(NC(=O)Nc3ccc4c(c3)OCO4)cc2C(=O)N([C@@H](C)CO)C[C@@H]1C
1[16.7 µM] | -13 | C[C@H]1CN([C@@H](C)CO)C(=O)Cc2cc(NS(=O)(=O)c3cccs3)ccc2O[C@H]1CN(C)C(=O)Nc1ccc(F)cc1

Looked up by compound from the entries so far:
Env fusion inh | UUG fidelity | Structure
-1[16.7 µM] | 1 | COc1ccc(NC(=O)Nc2cccc3c2O[C@H](CN(C)Cc2ccc(Oc4ccccc4)cc2)[C@H](C)CN([C@@H](C)CO)C3=O)cc1
-17[16.7 µM] | -1 | Cc1noc(C)c1NC(=O)Nc1ccc2c(c1)CC(=O)N([C@@H](C)CO)C[C@@H](C)[C@@H](CN(C)C(=O)Nc1ccc3c(c1)OCO3)O2
1[16.7 µM] | -13 | C[C@H]1CN([C@@H](C)CO)C(=O)Cc2cc(NS(=O)(=O)c3cccs3)ccc2O[C@H]1CN(C)C(=O)Nc1ccc(F)cc1

(next part)
Env fusion inh | UUG fidelity | Structure
-29[16.7 µM] | -18 | C[C@@H]1CN([C@@H](C)CO)C(=O)c2cc(NC(=O)Nc3ccc(F)cc3)ccc2O[C@@H](C)CCCCO[C@@H]1CN(C)S(=O)(=O)c1ccc(F)cc1
4[16.7 µM] | -5 | C[C@H](CO)N1C[C@H](C)[C@H](CN(C)Cc2ccc(C(=O)O)cc2)OCCCC[C@H](C)Oc2ccc(NC(=O)CCC(F)(F)F)cc2C1=O
2[16.7 µM] | -5 | CC(C)C#Cc1ccc2c(c1)O[C@H](CN(C)C(=O)c1cnccn1)[C@H](C)CN([C@@H](C)CO)S2(=O)=O
73*[16.7 µM] | 8 | C[C@H]1CN([C@@H](C)CO)C(=O)Cc2cc(NC(=O)Cc3ccccc3)ccc2O[C@H]1CN(C)S(=O)(=O)c1ccccc1
-13[16.7 µM] | -9 | C[C@H](CO)N1C[C@H](C)[C@H](CN(C)C(=O)Nc2ccc(F)cc2)Oc2cc(-c3ccncc3)ccc2S1(=O)=O
40[16.7 µM] | -6 | C[C@H](CO)N1C[C@H](C)[C@H](CN(C)S(=O)(=O)c2ccc(F)cc2)Oc2ccc(NS(=O)(=O)c3cccs3)cc2CC1=O
2[16.7 µM] | -11 | COCC#Cc1cnc2c(c1)C(=O)N([C@H](C)CO)C[C@H](C)[C@@H](CN(C)Cc1ccc(F)cc1)O2
-5[16.7 µM] | -12 | O=C(C[C@H]1CC[C@H]2[C@@H](COC[C@H](O)CN2C(=O)c2cnccn2)O1)N1CCN(c2ccccc2)CC1
-1[16.7 µM] | 14 | CCC(=O)N(C)C[C@@H]1Oc2cc(-c3ccc(OC)cc3)ccc2S(=O)(=O)N([C@@H](C)CO)C[C@@H]1C
-1[16.7 µM] | 9 | O=C(CN1CCOCC1)NCC[C@H]1CC[C@H](NC(=O)c2ccccc2F)[C@H](CO)O1

Screens: PubChem, Broad Institute
